# Bfl-1 A1 inh – inhibitors of the anti-apoptotic protein A1, read as caspase activation; MEF A1-2A-BIM cells, Caspase-Glo 3/7 luminescence, 3 h; percent of clofoctol response, vehicle zero; caspase activation, % (concentration not given with the values); 0.066% of 330,000 active; AID 2462;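 active means over half of replicate activation scores above 10%, or exactly half above 10 with the replicate mean above 10; inconclusive means replicate mean below 10 yet half the replicates above 10; inactive means over half of replicates below 10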;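 further: wells of about 30 µL received 50 nL stock; many hits fall short of the cut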
# UCH37 inh – human UCH37 deubiquitinating enzyme inhibition | inhibition, % (test concentration not listed) | Q9Y5K5 | 0.33% of 330,000 active | purified proteasome/UCH37, Ub-AMC cleavage fluorescence;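 active means mean of two replicates above 20%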;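 further: 0% = compound-free wells with enzyme and 100% = wells lacking proteasome; stock transfer was 100 nL into about 20 µL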
#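 Signal – fluorescence, ex 355 nm, em 460 nm · System – Proteasome-bound UCH37 · Input – 0.15 nM proteasome as dispensed · Timing – 30 min preincubation with enzyme, 25 min cleavage at room temperature · Read-out basis – percent inhibition of cleavage signal versus uninhibited and no-proteasome wells · Medium – Tris-HCl pH 7.4 with ATP-MgCl2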
# LANA-H2A inh – blocks KSHV LANA binding to histone H2A/H2B | Q9QR71 | AID 2629 | inhibition, % (no concentration beside the values) | 0.6% of 320,000 active | cell-free LANA-H2A/H2B peptide, fluorescence polarization; in the data active means inhibition mostly above about 10%, no sharp cut-off; inactive means mostly below about 6.7%;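 further: stock transfer was 7.5 nL into about 10 µL; 0% = median of vehicle wells and 100% = median of positive control wells; one replicate is shown; the record names a cut of 25% in any replicate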
# Target sequence (Q9QR71 whole entry, looked up): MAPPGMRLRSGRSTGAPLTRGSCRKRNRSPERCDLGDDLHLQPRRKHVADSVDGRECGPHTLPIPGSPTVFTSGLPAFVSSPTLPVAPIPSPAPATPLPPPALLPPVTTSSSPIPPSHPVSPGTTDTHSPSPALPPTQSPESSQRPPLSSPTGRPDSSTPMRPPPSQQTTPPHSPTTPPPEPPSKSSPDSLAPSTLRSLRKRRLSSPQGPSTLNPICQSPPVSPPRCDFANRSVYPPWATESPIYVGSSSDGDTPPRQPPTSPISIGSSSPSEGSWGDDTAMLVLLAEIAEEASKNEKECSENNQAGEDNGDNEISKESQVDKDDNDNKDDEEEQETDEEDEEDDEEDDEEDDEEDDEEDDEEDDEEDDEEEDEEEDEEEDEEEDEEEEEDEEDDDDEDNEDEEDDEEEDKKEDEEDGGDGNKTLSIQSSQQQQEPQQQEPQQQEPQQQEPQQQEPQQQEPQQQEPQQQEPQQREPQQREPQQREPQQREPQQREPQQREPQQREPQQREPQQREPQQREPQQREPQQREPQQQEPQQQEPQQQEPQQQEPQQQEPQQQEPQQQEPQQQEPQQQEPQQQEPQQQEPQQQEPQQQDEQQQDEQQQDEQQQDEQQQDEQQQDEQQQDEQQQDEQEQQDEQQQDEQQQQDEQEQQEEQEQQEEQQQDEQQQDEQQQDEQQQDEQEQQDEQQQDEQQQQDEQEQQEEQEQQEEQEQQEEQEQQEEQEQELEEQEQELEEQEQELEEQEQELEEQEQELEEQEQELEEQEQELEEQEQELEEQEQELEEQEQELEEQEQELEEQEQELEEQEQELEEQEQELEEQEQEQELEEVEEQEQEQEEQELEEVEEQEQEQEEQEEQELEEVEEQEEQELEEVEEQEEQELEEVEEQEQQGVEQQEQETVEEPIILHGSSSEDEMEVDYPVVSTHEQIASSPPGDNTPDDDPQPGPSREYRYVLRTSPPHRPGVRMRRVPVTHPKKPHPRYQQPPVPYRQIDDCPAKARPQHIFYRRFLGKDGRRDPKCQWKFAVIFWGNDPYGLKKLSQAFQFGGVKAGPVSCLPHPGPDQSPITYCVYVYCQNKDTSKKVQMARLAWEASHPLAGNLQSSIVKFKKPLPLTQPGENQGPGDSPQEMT
# Ecoli growth – blocks Escherichia coli growth. OD600, 23 h; active compounds read low. OD600 absorbance (concentration not given with the values). 0.21% of 330,000 active. AID 1053175;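 active means OD600 absorbance below the run mean of sample wells minus 3.6 SD, in any replicate, cut at about 0.56 in these data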;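 further: stock transfer was 300 nL into about 60 µL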
# HNF4A DNA FP – change in binding of human HNF4 alpha to DNA; P41235; HNF4a-FITC DNA binding, fluorescence polarization, 1 h; activity change, % at 10 µM; 0.3% of 360,000 active; AID 1224865; in the data active means activity change above about 30%, passing the limit was not always enough;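 further: controls were the assay level and a saturating level of protein; the project sought stronger binding though the title names inhibitors; some compounds called inactive have numbers as strong as hits; positive values seem to mean higher polarization but the record does not say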
# Vif TR-FRET – HIV-1 Vif–A3G interaction blockers – biochemical, TR-FRET, GST-Vif 1-94, biotin-A3G peptide, dose response retest, primary screen (AID 1117319); one-dose inhibition, %; IC50 in µM for titrated hits; TR-FRET GST-Vif / biotin-A3G peptide binding; higher % means a stronger effect; test concentration not given here; strong numbers were not always called active; 0.57% of 260,000 active;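 active means above the screen mean plus three standard deviations and confirmed in dose response; inconclusive means results disagree or hit not tested in dose response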;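 further: Vif residues 1-94 fused to GST binding biotinylated APOBEC3G peptide 110-148; 0% = full assay without inhibitor and 100% = GST in place of GST-Vif; retest series ran down from 100 µM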
# Beta2AR agonist – activates human beta-2 adrenergic receptor causing internalization | P07550 | Am2.2-beta2AR cells, FAP receptor internalization, flow cytometry; reference of the scale not given here | response, % (no concentration beside the values) | 0.43% of 340,000 active;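 active means response above a set limit, near 3 SD of response in nonfluorescent compounds, cut at about 42% in these data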;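 further: stock transfer was 100 nL into about 11 µL; a reference agonist was the positive control; negative values mostly stem from fluorescent compounds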
# * hit, by the source's call; i = inactive; ? = inconclusive; · = not tested or not shown.
SMILES,Bfl-1 A1 inh,UCH37 inh,LANA-H2A inh,Ecoli growth,HNF4A DNA FP,Vif TR-FRET,Beta2AR agonist
CC(C)(C)NC(=S)NNC(=O)[C@H]1C[C@@H]1c1ccccc1,-2.2,1.0,2.0,0.71,-0.1,-5%,-2
Cc1ccc(NC(=O)C2CCCN(S(=O)(=O)c3cnc[nH]3)C2)cc1C (stereo not given),0.6,2.9,3.9,0.73,8.7,-2%,-13
O=C(NCc1ccc(Cl)cc1)c1csc(-c2cccnc2)n1,0.4,2.9,-6.4,0.7,2.0,16%,-4
CCN(CC(=O)NCc1ccc(F)cc1)S(=O)(=O)c1ccc(Cl)s1,-0.3,4.3,11,0.72,-1.3,·,-4
Cc1ccc(C(=O)N[C@H](C(=O)Nc2sccc2C(N)=O)C(C)C)cc1,-0.7,4.2,2.9,0.69,2.6,·,-15
CCCc1nc(SCC(=O)Nc2cc(C)on2)c2c(=O)n(C)c(=O)n(C)c2n1,1.3,3.0,-1.5,0.73,-0.3,-4%,3
CN(C)c1ccc(/C=C(\C#N)C(=O)NCc2ccco2)cc1,-0.5,2.9,·,0.71,·,-4%,·
Cc1ccc(NC(NC(=O)c2ccccc2[N+](=O)[O-])C(Cl)(Cl)Cl)cc1 (stereo not given),-0.1,0.0,-1.8,0.64,1.6,·,4
Cc1c(C(=O)N(C)c2ccccc2)oc2c1C(O)CC(C)(C)C2 (stereo not given),1.2,3.5,2.9,0.74,1.3,·,0
CC(OC(=O)c1ncc(Cl)c(Cl)c1Cl)C(=O)NC1(C#N)CCCCC1 (stereo not given),0.5,0.4,-4.0,0.7,14,3%,3
CCOC(=O)C1=NOC(CNC(=O)C2=NOC(CNC(=O)c3c(-c4ccccc4Cl)noc3C)C2)C1 (stereo not given),0.8,1.1,-4.6,0.76,-1.8,2%,7
Cc1ccc(C)c(NC(=O)C2CCCN(S(=O)(=O)c3cccnc3)C2)c1 (stereo not given),-0.4,2.5,-7.2,0.64,4.0,13%,-5
O=C1NCCN1CCNS(=O)(=O)c1cc(C(F)(F)F)cc(C(F)(F)F)c1,0.0,4.5,6.5,0.66,2.4,0%,8
COc1ccc(Cn2c(CCC(=O)Nc3ccc(CC#N)cc3)nc3cccnc32)cc1,0.1,3.0,-3.2,0.75,0.6,-5%,-20
Cc1ccc(-c2nc3c(c(=O)[nH]c(=O)n3Cc3ccccc3)n2C)s1,1.4,-25,4.1,0.72,·,-4%,·
CCC(=O)N1CCN=C1SCc1cccc(F)c1,-0.7,0.9,-2.2,0.68,3.1,·,-16
CCn1cc(Cl)c(C(=O)NNC(=O)CCn2nc(C)c([N+](=O)[O-])c2C)n1,0.5,3.3,0.9,0.68,-1.7,·,-2
COc1ccc(CCNC(=O)C2CCCN(S(C)(=O)=O)C2)cc1OC (stereo not given),0.0,-0.1,-0.1,0.64,3.7,29%,-5
CC1CC(=O)NN=C1c1cccs1 (stereo not given),-0.2,1.8,3.4,0.58,0.9,5%,-2
CCN(CC(=O)NCc1cccs1)C(=O)/C=C/c1ccc(C)cc1,0.0,4.6,-0.7,0.7,1.0,27%,3
COCc1ccc2oc(C(=O)O)cc2c1,-0.5,7.1,0.8,0.74,-1.2,8%,-9
Fc1ccc(Nc2nc(Oc3ccccc3F)nc(N3CCCC3)n2)cc1,1.1,3.7,0.9,0.65,-1.5,2%,2
O=C(NCCc1ccccc1)c1nnc(CS(=O)(=O)c2ccccc2)o1,0.3,1.0,-0.9,0.77,-1.0,·,-8
Cc1cc(Br)cc2c1N(C)C(=O)C2(c1ccc(O)cc1)c1ccc(O)cc1,0.8,5.2,0.9,0.65,2.8,·,1
Cn1c(NC(=O)CC(C)(C)C)cc(=O)n(C)c1=O,-0.2,4.3,1.2,0.75,3.2,9%,-9
SMILES,Bfl-1 A1 inh,UCH37 inh,LANA-H2A inh,Ecoli growth,HNF4A DNA FP,Vif TR-FRET,Beta2AR agonist
N#C/C(=C\c1ccc(C#N)cc1)C(=O)c1ccccc1,1.3,·,-0.5,·,1.9,3%,0
Cc1cccc(OCC(=O)O/N=C(\N)c2ccc(Br)cc2)c1,-0.2,-0.5,-3.8,0.67,-3.5,-9%,2
CC(C)(C)c1cc(=O)n2[nH]c(N)nc2n1,0.5,2.9,0.3,0.66,2.1,-4%,-2
COC(=O)CCCC1=CC2=CC(=O)C(C)(OC(=O)c3cccs3)C(=O)C2=CN1Cc1ccccc1 (stereo not given),0.5,4.7,1.0,0.68,3.4,·,-3
COc1ccc(N(C(=O)CNC(=O)c2ccco2)C(C(=O)NC2CCCC2)c2cccnc2)cc1 (stereo not given),-0.2,2.6,-2.0,0.71,-3.5,·,-3
CC1CCCN(S(=O)(=O)c2ccc(NC(=O)CCN3C(=O)c4ccccc4C3=O)cc2)C1 (stereo not given),0.4,2.1,-4.3,0.76,1.1,-4%,-2
O=C(Nc1cccc(OC(=O)c2ccco2)c1)c1ccco1,-1.5,4.0,-1.8,0.65,-0.7,2%,-8
CCOCC(=O)Nc1nc(C)cc(C)n1,0.7,2.1,-1.5,0.68,-0.7,27%,10
OC(c1ccc(Cl)cc1)c1nnc(-c2ccccc2)o1 (stereo not given),0.0,-0.1,1.3,0.69,1.3,-3%,9
COc1ccc(-c2nnc(N(C)C(=O)c3cccnc3)s2)cc1,-2.0,3.1,1.3,0.69,-1.1,-2%,5
CCOC(=O)N1CCN(C(=O)c2ccc3c(=O)n(Cc4ccc(OC)cc4)c(=S)[nH]c3c2)CC1,2.1,3.2,3.5,0.71,1.0,19%,4
Cc1ccc(S(=O)(=O)N(C)CC(=O)O/N=C(\N)c2ccccn2)cc1,-0.1,·,3.7,·,3.3,-2%,8
COc1ccc(CN(C)C(=O)c2ccccc2Sc2ccccc2C#N)c(OC)c1,0.3,0.4,4.7,0.74,-0.4,·,4
C=C(C)CSc1nnc(-c2ccccc2)n1N,-1.2,1.9,6.5,0.7,0.1,0%,-3
CCC(=O)NC(Cc1ccccc1)c1nc2ccccc2[nH]1 (stereo not given),0.8,1.3,1.0,0.69,0.1,·,-4
Cc1cc(C)cc(NC(=O)[C@@H](NC(=O)c2ccco2)C(C)C)c1,-0.7,-0.4,1.2,0.73,-2.2,2%,5
COc1ccc(/C=N/n2cnc3c(sc(=S)n3-c3ccccc3)c2=O)cc1,-0.5,·,0.2,·,1.8,-3%,-19
Cc1ccc(C2C(C#N)=C(N)Oc3cc4c(cc32)OCO4)cc1 (stereo not given),-1.4,4.0,-4.5,0.7,2.7,3%,-3
COc1ccc(S[C@@H](CCN2CC[C@H](NC(=O)OCc3ccccc3)CCC2=O)c2ccccc2)cc1,0.7,·,-0.9,·,1.8,·,-5
CC(=O)c1ccc(OCC(=O)Nc2ccccc2N2CCCC2)cc1,-1.0,-0.1,0.3,0.71,-2.3,·,-11
Nc1ncnc2c1ncn2[C@@H]1O[C@H](CNCc2ccccc2)[C@@H](O)[C@H]1O,-0.5,1.7,4.0,0.67,5.0,-1%,18
c1ccc(C2=NNC(=NCc3ccc4c(c3)OCO4)SC2)cc1,-0.5,7.9,0.1,0.68,-2.8,32%,-1
C[C@@H](C(=O)O)[C@H]1C[C@]1(C)[C@H](NC(=O)OCc1ccccc1)c1ccccc1,0.2,1.7,-0.3,·,1.2,·,0
CCCCN(C)Cc1c(C)[nH]c2c(Cl)cccc2c1=O,1.0,-0.3,0.5,0.67,-4.0,3%,4
O=C(Nc1ccccc1Cl)c1cc(=O)c2ccccc2o1,-3.0,1.2,-0.3,0.65,4.4,-6%,0

# Sorted by number of heavy atoms (low to high): four of the compounds above.
SMILES,Bfl-1 A1 inh,UCH37 inh,LANA-H2A inh,Ecoli growth,HNF4A DNA FP,Vif TR-FRET,Beta2AR agonist
CC(C)(C)c1cc(=O)n2[nH]c(N)nc2n1,0.5,2.9,0.3,0.66,2.1,-4%,-2
Cn1c(NC(=O)CC(C)(C)C)cc(=O)n(C)c1=O,-0.2,4.3,1.2,0.75,3.2,9%,-9
COc1ccc(CCNC(=O)C2CCCN(S(C)(=O)=O)C2)cc1OC (stereo not given),0.0,-0.1,-0.1,0.64,3.7,29%,-5
COC(=O)CCCC1=CC2=CC(=O)C(C)(OC(=O)c3cccs3)C(=O)C2=CN1Cc1ccccc1 (stereo not given),0.5,4.7,1.0,0.68,3.4,·,-3

# New compounds follow.
SMILES,Bfl-1 A1 inh,UCH37 inh,LANA-H2A inh,Ecoli growth,HNF4A DNA FP,Vif TR-FRET,Beta2AR agonist
CC1c2ccsc2CCN1C(=O)NC(=O)c1ccc(Cl)cc1 (stereo not given),-0.3,1.4,1.7,0.7,-0.5,0%,0
O=C(O)c1ccc(NCc2nc3ccccc3n2Cc2ccccc2)cc1,0.4,2.9,-0.9,0.7,-0.2,11%,7
CCOc1ccccc1N1CCN(C(=O)c2ccc3c(c2)OCO3)CC1,1.0,-0.2,-0.6,0.64,0.7,·,1
O=C(CSCc1c(Cl)cccc1Cl)NCC1CCCO1 (stereo not given),0.4,0.0,3.0,0.68,0.9,-1%,3
COc1ccc(C(C(=O)NC2CCCC2)N(CCO)C(=O)Cn2nnc(-c3ccc(C)o3)n2)cc1OC (stereo not given),-0.1,1.5,3.3,0.65,2.4,·,11
O=C(Cc1ccsc1)N1CCc2c([nH]c3ccccc23)C1c1ccccn1 (stereo not given),-0.2,-23,-0.9,0.76,1.6,3%,-5
CC(=O)Nc1ccc(NC(=O)CN(C)CCC#N)cc1,0.2,3.1,1.2,0.68,5.0,1%,0
Cc1ccc(NC(=O)CN(C)C(=O)C(c2ccccc2)c2ccccc2)cc1,0.4,1.1,-0.2,0.69,1.5,·,0
COc1cc(-c2c(NC(=O)c3ccco3)oc3c(C)cccc3c2=O)cc(OC)c1OC,0.2,8.4,0.0,0.63,5.0,-6%,2
c1ccc(-c2nc(N3CCCC3)nc3ccccc23)cc1,-0.7,-37,1.4,0.73,-2.0,-1%,-2
CC1CC(C)CN(C(=O)c2ccc3ccccc3c2)C1 (stereo not given),-0.8,2.8,-1.1,0.67,-1.8,2%,-2
COc1ccc2nc(N/C(N)=N/C(=S)Nc3cccc(C)c3)nc(C)c2c1,-0.3,6.8,-1.4,0.72,4.1,-14%,17
Cc1cccc(C)c1NC(=O)CN(C)C(=O)CSCc1c(C)noc1C,-0.3,0.4,4.2,0.63,-0.5,4%,-7
COc1ccccc1NC(=O)COc1ccc(CO)cc1Cl,-1.3,2.1,3.7,0.75,-1.8,-2%,-4
CCOP(=O)(/C(C#N)=C(\C)O)c1ccccc1 (stereo not given),0.8,5.3,5.0,·,-3.2,·,-2
COc1ccccc1CN(CC(=O)NCc1ccco1)C(=O)CNS(=O)(=O)c1ccccc1,-0.7,0.5,0.5,0.69,1.7,?,2
O=C(CCn1ccc([N+](=O)[O-])n1)NC1CCCCCC1,0.1,2.0,-5.8,0.71,1.6,3%,17
C=CCNC(=O)c1ccc(C2SCC(=O)N2Cc2ccco2)cc1 (stereo not given),-0.2,-0.8,i,0.73,-4.0,15%,0
Cc1cc(NC(=O)c2ccc3c(c2)OCO3)ccc1NC(=O)c1ccco1,-7.6,3.0,2.6,0.64,0.1,-6%,-5
COc1ccccc1C(=O)C1CCCN(C(=O)c2cc(CC(C)C)nc(C)n2)C1 (stereo not given),0.6,0.3,5.5,0.7,0.3,·,-6
CC(=O)Nc1cccc(C(=O)Nc2ccc(S(=O)(=O)N3CCCCC3)cc2)c1,0.3,2.0,0.7,0.7,0.9,0%,10
CCC1S/C(=N\S(=O)(=O)c2cccs2)N(C2CCCCC2)C1=O (stereo not given),0.7,·,0.4,·,0.7,-7%,0
COCCn1c(CN2CC(C)CC(C)C2)nc2c1c(=O)n(C)c(=O)n2C (stereo not given),0.2,3.7,2.6,0.79,1.9,?,0

# Bioassay records: PubChem BioAssay, several laboratories
